High-throughput results as filed in PubChem.
Vaccinia Venus = inhibitors of vaccinia virus (Venus reporter); Vaccinia virus Venus reporter expression, fluorescence; Potency, µM (top dose mostly 36.5 µM), for inactives: at the top dose activity change, negative = inhibition, usual class: inhibitors; hit rate 0.46% among 330,000; active means well fitted inhibition curve with a large enough effect; inconclusive means small, poorly fitted or top-dose-only effect; inactive means no such curve, though single readings can be large or run the other way; tested in A549 cells; further: nearly all actives have a fitted effect of over 30% in size; inactives centre near -10
Vaccinia mCherry = vaccinia inhibition (mCherry reporter); hit rate 0.63% among 310,000; Potency, µM (series often up to 36.5 µM), for inactives: at the highest dose activity change, negative = inhibition, usual class: inhibitors; Vaccinia virus mCherry reporter infection, fluorescence; about a quarter of the inactives have no number; active = well fitted inhibition curve with a large enough effect; inconclusive = small, poorly fitted or top-dose-only effect; inactive = no such curve, though single readings can be large or run the other way; tested in A549 cells; further: nearly all actives have a fitted effect of over 35% in size; inactives centre near -10
Numbers without * were called inactive; i = inactive; ? = inconclusive; . = no result given; & = joins results of further samples; [ ] = another dose, or the depositor's remark. On the % scale 0 is the no-effect control and ±100 the full control effect; potency means the concentration at half of the fitted maximal effect.

The line under a structure holds: Vaccinia Venus, Vaccinia mCherry
[1] CCCOc1ccc(C2c3c(oc4cc(C)c(C)cc4c3=O)C(=O)N2CCCN(C)C)cc1OCC (stereo not drawn)
  -8%, -13%
[2] CCCCNC(=O)C[C@@H]1C[C@@]2(C(=O)OC)CCCCC=C2N(Cc2ccco2)C1=O
  5%, 9%
[3] CCC(C(=O)Nc1cc(C(=O)O)ccc1C)c1ccccc1 (stereo not drawn)
  -19%, 0%
[4] CCCCc1nn2c(=O)cc(COC(=O)c3ccc(NC(=O)c4cccc(OC)c4)cc3)nc2s1
  -7%, -14%
[5] O=C(COc1ccc(Cl)cc1)Nc1ccccc1C(=O)NCc1ccco1
  -27%, -12%
[6] CN1CCN(c2ccc(-c3ccc4ccccc4n3)cc2)CC1
  -2%, 0%
[7] Cc1ccc(C(=O)N2[C@@H]3CN(C)C(=O)[C@@]2(C)[C@H]2C(=O)N(C)C(=O)[C@@H]32)cc1
  -5%, i
[8] O=C1CSCc2nc3ccccc3n21
  -6%, -11%
[9] COc1cc(OC)c(NC(=O)C(=O)CC(=O)c2ccc(C)cc2C)cc1Cl
  2%, ?
[10] CCN(CC)c1nc2c(c(=O)[nH]c(=O)n2C)n1CCCc1ccccc1
  -19%, -12%
[11] Cc1cc(C)cc(NC(=O)Cn2nnc(C(=O)NCc3ccc(F)cc3)c2N)c1
  0%[7.34 µM], i[7.34 µM]
[12] CCn1cc(C(=O)O)c(=O)c2cnc(N3CCN(C(=S)NC(=O)c4ccc(F)c(F)c4)CC3)nc21
  5%, -6%
[13] CN1CCN(c2ccc(C(F)(F)F)cc2N)CC1
  -6%, i
[14] COc1ccc(Cl)cc1NC(=O)CN1CCC(n2nnc3cc(C)ccc32)CC1
  -18%, -15%
[15] CCCCOc1ccc(NC(=O)CSc2ccc(C(=O)O)cn2)cc1
  -2%, -9%
[16] CS(=O)(=O)Nc1cccc(NC(=O)c2cccc3c(-c4cccc(C(N)=O)c4)coc23)c1
  3%, -4%
[17] C=CCn1c(SCC(=O)Nc2nc(C)cs2)nnc1C(CO)NC(=O)c1ccccc1 (stereo not drawn)
  ?, .
[18] CC(O)c1n(C)c(Cl)c[n+]1C (stereo not drawn)
  -4%, -10%
[19] CCCCc1c(O)nc(SCCN(C)C)n(-c2ccccc2)c1=O
  9%, 2%
[20] CC(C)(C)c1nnc(NC(=O)c2cc(-c3ccccc3)nc3ccccc23)s1
  -16%, -14%
[21] COc1ccc(S(=O)(=O)N2CCOCC2)cc1NC(=O)Cc1ccccc1Cl
  -16%, -15%
[22] C#Cc1ccc([C@@H]2C=C(C(=O)OCC=C)O[C@H](OCC)[C@H]2CCCO)cc1
  -6%, i
[23] CC(C)(C)[C@@H]1COC(=O)[C@H](Cc2ccc(F)cc2)CC/C=C\C[C@H](CC(=O)N(CCO)Cc2ccccc2)C(=O)N1
  ?, -30%
[24] CCOC(=O)c1cc(NC(=O)C2CCCO2)cc(C(=O)OCC)c1 (stereo not drawn)
  -6%, -8%
[25] CN(CCOc1ccccc1)C(=S)Nc1ccc(OC(F)F)cc1
  -5%, -10%
[26] CN1CCCC(OC(=O)CCCC(=O)OC2CCCN(C)C2)C1 (stereo not drawn)
  -5%, -13%
[27] O=C(O)CC1c2ccccc2CCN1S(=O)(=O)c1ccc(F)cc1 (stereo not drawn)
  -4%, i
[28] COC(=O)c1c(C)[nH]c(/C=N/Nc2ccccc2)c1C
  -17%, -6%
[29] CCOc1ccccc1NC(=O)CSc1cn[nH]n1
  6%, ?
[30] CCOc1ccc(OCCCC(=O)NNC(=O)c2ccncc2)cc1
  ?, ?
[31] Cc1c(S(=O)(=O)N2CCC(C)CC2)c(=O)n(C)c(=O)n1C
  -10%, -14%
[32] COc1ccc(S(=O)(=O)N(CC(=O)NCc2ccc(C)cc2)c2ccc(Cl)cc2)cc1
  -18%, -18%
[33] CC(=O)N1CCc2cc(S(=O)(=O)CCC(=O)Nc3c(C)n(C)n(-c4ccccc4)c3=O)ccc21
  -18%, i
[34] O=C(N/N=C/c1ccc2c(c1)OCO2)C(O)c1ccccc1 (stereo not drawn)
  -2%, -11%
[35] CC(C)c1ccc(/C=N\NC(=O)c2ccc(Cn3cccn3)o2)cc1
  -10%, -11%
[36] COc1cc(C(=O)NCC(c2cccnc2)N2CCc3ccccc32)cc(OC)c1OC (stereo not drawn)
  -12%, -6%
[37] CCOC(=O)c1[nH]cnc1C(=O)N1CCN(C(=O)OC(C)(C)C)CC1
  -17%, -22%
[38] CN(C)S(=O)(=O)c1cc(NC(=O)COC(=O)C2CSC3(C)CCC(=O)N23)ccc1Cl (stereo not drawn)
  -7%, i
[39] C=CCNc1nc(NCCOc2ccccc2Cl)c2sc(-c3ccccc3)cc2n1
  ?, -19%
[40] Nc1ccc(S(=O)(=O)Nc2ccc(S(N)(=O)=O)cc2)cc1
  -7%, -12%
[41] O=C(CSc1n[nH]c(=O)[nH]c1=O)Nc1c(Cl)cc(Cl)cc1Cl
  -6%, i
[42] C=C/C(C)=C/C[C@H]1C(=C)CCC2[C@](C)(C(=O)O)CCC[C@@]21C (stereo partly drawn)
  -9%, -7%
[43] Cc1ccc(CC(NC(=O)c2ccc(C)cc2)C(=O)O)cc1 (stereo not drawn)
  -9%, -13%
[44] Cc1ccc(N2CC(NC(=O)c3ccco3)CC2=O)cc1C (stereo not drawn)
  -10%[7.34 µM], -10%[7.34 µM]
[45] O=C1OC(c2ccccc2)(c2ccccc2)c2ccccc21
  -12%, i
[46] Cn1c(SCC(=O)c2ccccc2F)nnc1C1CC1
  2%, -11%
[47] Nn1c(SCC(=O)Nc2ccc3c(c2)OCO3)nnc1C(F)(F)F
  -4%, -10%
[48] COc1cccc(C(=O)Nc2cccc(-c3cn4ccsc4n3)c2)c1OC
  -10%[7.34 µM], -13%[7.34 µM]
[49] COc1ccc(Nc2nc3c(c(=O)n(C)c(=O)n3C)n2CCO)cc1
  5%, -8%
[50] NC(=O)c1cc(-c2ccncc2)nc2ccc(Cl)cc12
  23%, -13%
[51] COC(=O)C1=C(c2cc3ccccc3s2)C[C@@H]2CC[C@H]1N2C(=O)NCC1CC1
  -22%, i
[52] COc1ccc(OC)c(NC(=O)Nc2nnc(N3CCC(C)CC3)s2)c1
  -1%, -10%
[53] Cc1c(NC(=O)c2cccc(NS(C)(=O)=O)c2)c(=O)n(-c2ccccc2)n1C
  0%, -7%
[54] CN(C)C(=O)/C(=C/c1cn(-c2ccccc2)nc1-c1cccc([N+](=O)[O-])c1)NC(=O)c1ccccc1
  -9%, i
[55] Cc1c(C(=O)NC(C)C2CC3CCC2C3)cccc1[N+](=O)[O-] (stereo not drawn)
  -14%, ?
[56] CCN(CC)C(=O)/C(=C\c1ccc(Br)cc1)NC(=O)c1ccccc1OC
  -15%, ?
[57] COc1ccc(OC)c(C(=O)C(=O)c2cc(OC)ccc2OC)c1
  -5%, -5%
[58] CCN(CC)c1ccc(C(=O)NCc2nc3cccnc3n2Cc2ccc(C)cc2)cc1
  -7%, -13%
[59] COc1ccc(N/N=C(/C(N)=O)C2=NC(C)(C)Cc3ccccc32)cc1
  ?, 14µM*
[60] COc1ccc(N(CC(=O)N2CCc3ccccc3C2)S(=O)(=O)c2ccccc2)cc1
  -5%&-8%, -20%&-19%

Whole records, quoted from the list. Order of screens: Vaccinia Venus, Vaccinia mCherry
Results for `COc1ccc(Nc2nc3c(c(=O)n(C)c(=O)n3C)n2CCO)cc1` → 5%, -8%
Results for `COc1ccc(N(CC(=O)N2CCc3ccccc3C2)S(=O)(=O)c2ccccc2)cc1` → -5%&-8%, -20%&-19%
Results for `Cn1c(SCC(=O)c2ccccc2F)nnc1C1CC1` → 2%, -11%
Results for `COc1ccc(OC)c(C(=O)C(=O)c2cc(OC)ccc2OC)c1` → -5%, -5%

More results follow:
item	SMILES	Vaccinia Venus	Vaccinia mCherry
61	CC(C)CC(=O)Nc1ccc(C(=O)OCc2cc(=O)n3nc(C(C)C)sc3n2)cc1	-8%	-4%
62	Cc1ccc2ncnc(Nc3ccccc3)c2c1	-16%	-14%
63	COc1cc(CC2C(=O)OCC2C(=O)c2ccc3c(c2)OCO3)cc(OC)c1OC (stereo not drawn)	-3%	i
64	CCc1cc2c(=O)n(N)c(CCC(=O)O)nc2s1	0%	i
65	Cc1cccc(Oc2nc3ccccn3c(=O)c2/C=C(\C#N)c2nc3ccccc3s2)c1C	2%	i
66	CCn1cc(/C=N/NC(=O)c2cc3c(ccc4ccccc43)o2)c2ccccc21	-17%	-7%
67	O=C(N=Nc1c(O)[nH]c(=O)[nH]c1=O)C1COc2ccccc2O1 (stereo not drawn)	4%	i
68	COc1ccccc1C1CCN(c2ccc([N+](=O)[O-])c(OC)c2)CC1	-14%	-15%
69	COc1ccccc1N/C=C(\C#N)c1nc2ccccc2[nH]1	-17%	-13%
70	Cc1cnc(-n2ncc(C(=O)NCCN3CCOCC3)c2-c2cccs2)nc1-c1ccc(F)cc1	0%	i
71	COc1ccc(/C=N/n2c(C)cc(C)c(C(N)=O)c2=O)cc1	13%	0%
72	CCOC(=O)[C@@H]1[C@H]2COc3ccccc3[C@@H]2N2C(=O)N(c3ccc(OC)cc3)C(=O)[C@@]12C	-13%	-8%
73	O=C(N/N=C/c1cccc(OC(=O)c2ccco2)c1)c1ccc(F)cc1	2%	-2%
74	O=C(NCCC(=O)N1CCN(c2ccccn2)CC1)c1ccc(Br)cc1	-7%	-9%
75	CCN(C[C@H]1N[C@@](C)(C(=O)OC)[C@H]2C(=O)N(Cc3ccccc3)C(=O)[C@@H]12)S(=O)(=O)c1ccc(C)cc1	-17%	i
76	CC(=O)Nc1ccc2c(c1)C(=Nc1ccccc1)c1ccccc1-2	-2%	-10%
77	CC(=O)c1ccc2noc(-c3cccc(F)c3)c2c1	-15%	i
78	C[C@H](CO)N1C[C@H](C)[C@@H](CN(C)S(=O)(=O)c2ccc(F)cc2)Oc2ccc(NC(=O)C3CCCCC3)cc2C1=O	-22%	-15%
79	CCOC(=O)C1CCN(C(=O)c2ccc(SC)cc2OC)CC1	-13%	-7%
80	Cc1cccc2sc(N(CCCN(C)C)C(=O)c3ccc(C(=O)c4ccccc4)cc3)nc12	-27%	?
81	Cc1ccc[n+](CC(=O)Nc2cccc([N+](=O)[O-])c2)c1	2%	i
82	Cc1cc(OC(=O)N2CCOCC2)cc(C)c1Cl	-4%	-8%
83	Cc1nn(-c2ncc(C(F)(F)F)cc2Cl)c(=O)n1-c1cccc(Cl)c1	-15%	i
84	CCN1C(=O)C(CC(=O)Nc2ccccc2)N(Cc2ccccn2)C1=S (stereo not drawn)	-8%	-11%
85	O=C1COc2ccc(S(=O)(=O)N3CCN(c4ccccc4F)CC3)cc2N1	-14%	-5%
86	C=CCNC(=O)c1ccc2nc(Cc3ccc(OC)cc3)oc2c1	-24%	-18%
87	CC(C)(C)CC(=O)NC(=S)Nc1ccccc1C(F)(F)F	-3%	-10%
88	CC(C)Cn1nc(C(=O)Nc2cccc(S(=O)(=O)N3CCCC3)c2)c2ccccc2c1=O	-23%	?
89	Cc1cc(N2CCN(Cc3nc(-c4ccc(F)cc4)oc3C)CC2)cc(C)n1	-24%	-27%
90	O=C(NC1CCCCC1)C(c1ccccc1)N(C(=O)c1cccs1)c1ccc2c(c1)OCO2 (stereo not drawn)	-1%	i

Part of the list above, reformatted.
82) Cc1cc(OC(=O)N2CCOCC2)cc(C)c1Cl
84) CCN1C(=O)C(CC(=O)Nc2ccccc2)N(Cc2ccccn2)C1=S (stereo not drawn)
assay / compound	82	84
Vaccinia Venus	-4%	-8%
Vaccinia mCherry	-8%	-11%

(continued)
item	SMILES	Vaccinia Venus	Vaccinia mCherry
91	C=C(C)CN(CC)C(=O)CN1C(=O)NC(C)(c2ccc3ccccc3c2)C1=O (stereo not drawn)	-13%	i
92	CN(Cc1ccccc1)C(=O)Nc1c(Cl)cccc1Cl	3%	5%
93	CCN(CC)CCCN1C(=O)C(=O)/C(=C(/O)c2ccc(Cl)cc2)C1c1ccccn1 (stereo not drawn)	-24%	-5%
94	CN(C(=O)Cn1c(Cl)nc2c1c(=O)n(C)c(=O)n2C)C1CCS(=O)(=O)C1 (stereo not drawn)	-12%	-3%
95	O=C1NC2(CCC3(CC2)OCCO3)NN1c1ccc(Cl)cc1	-19%	-18%
96	Cc1cc(O)cc2c1O[C@](C)(CCC(=O)O)CC2	-14%	i
97	S=C(Nc1ccccc1Cl)N1CCCCCC1	-13%	-9%
98	COc1ccc(-n2nc(C(=O)N3CCN(c4ccccc4OC)CC3)c3c4ccccc4n(C)c3c2=O)cc1	-4%	-10%
99	COc1ccc(C2=NN(CN3C(=O)C(=O)c4ccccc43)C(c3cccc([N+](=O)[O-])c3)C2)cc1 (stereo not drawn)	-4%[7.34 µM]	-12%[7.34 µM]
100	O=C(O)c1ccc(Cl)c(S(=O)(=O)NCc2ccco2)c1	-3%	.
101	Cn1c(SCC(=O)NCCc2ccccc2)ncc(C(=O)Nc2ccccc2)c1=O	-10%	-14%
102	COc1ccc(NC(=O)Nc2ccccc2SC)c(OC)c1	-13%	-13%
103	Cc1ccc(S(=O)(=O)N2CCN(C(=O)c3ccc(N4CCCC4)c([N+](=O)[O-])c3)CC2)cc1	-23%	-28%
104	CCc1ccc(NC(=O)c2ccc(F)c(S(=O)(=O)NC3CCCCCC3)c2)cc1	?	?
105	CC1CCN(C(=O)c2ccc3c(c2)NC(=O)/C(=C/c2ccccc2)S3)CC1	-20%	?
106	CCCCCCn1c(=O)n2n(c1=O)[C@@H]1CN(S(=O)(=O)c3ccc(C)cc3)C[C@]1(O)[C@@H](OC(=O)Nc1cccs1)C2	?	-28%
107	CSc1ccccc1OCc1cc(C(=O)N(C)CC2COCCO2)no1 (stereo not drawn)	-9%	i
108	CSc1ccc(CN2C(=O)NC3(CCCCCC3)C2=O)cc1	-23%	-2%
